KCNQ2 block – KCNQ2 potassium channel inhibitors, primary screen, cell-based, CHO-K1, FluxOR thallium flux, B-score (AID 2156). Potassium voltage-gated channel subfamily KQT member 2 (Rattus norvegicus), O88943. 20 min; hits give low values; only compounds with negative scores are shown here; some inactives read as strong as hits. B-score at 10 µM. hit rate 1.1% among 310,000;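 active means fluorescence ratio B-score at most minus 3 library SDs, with starting brightness B-score within 2 library SDs, cut at about -5.5 in these data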
Target sequence (O88943 whole entry, looked up): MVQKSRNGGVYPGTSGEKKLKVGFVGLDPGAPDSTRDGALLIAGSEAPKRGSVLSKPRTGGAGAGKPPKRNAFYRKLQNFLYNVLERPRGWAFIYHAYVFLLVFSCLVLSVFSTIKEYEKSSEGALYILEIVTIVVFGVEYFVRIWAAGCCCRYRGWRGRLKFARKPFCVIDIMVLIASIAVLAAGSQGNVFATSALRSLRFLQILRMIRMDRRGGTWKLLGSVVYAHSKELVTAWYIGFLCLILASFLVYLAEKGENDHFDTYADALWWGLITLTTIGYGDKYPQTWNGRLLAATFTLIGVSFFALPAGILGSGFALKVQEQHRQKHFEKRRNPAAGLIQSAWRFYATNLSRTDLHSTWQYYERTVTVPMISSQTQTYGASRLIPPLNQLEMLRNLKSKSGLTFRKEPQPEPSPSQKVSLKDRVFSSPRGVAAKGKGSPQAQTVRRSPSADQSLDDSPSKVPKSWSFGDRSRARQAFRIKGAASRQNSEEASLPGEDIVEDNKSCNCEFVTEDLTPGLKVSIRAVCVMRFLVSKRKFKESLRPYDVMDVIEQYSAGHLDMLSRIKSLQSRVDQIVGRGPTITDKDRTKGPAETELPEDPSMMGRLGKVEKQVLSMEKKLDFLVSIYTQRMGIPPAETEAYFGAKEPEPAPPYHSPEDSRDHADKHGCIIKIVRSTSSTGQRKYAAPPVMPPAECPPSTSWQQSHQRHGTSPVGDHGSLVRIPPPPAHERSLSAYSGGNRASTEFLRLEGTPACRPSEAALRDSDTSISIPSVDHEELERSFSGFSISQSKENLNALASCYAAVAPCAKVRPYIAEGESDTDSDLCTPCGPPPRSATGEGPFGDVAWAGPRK
KCNQ2 block baseline – second read-out of KCNQ2 block, no call of its own (marks repeat the call); B-score; measured here: initial fluorescence intensity artifact check;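 brightness before thallium and not channel activity; 0 = typical well and far values either way flag optical interference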
Starred values were filed as active, the others as inactive; i = inactive.

SMILES | KCNQ2 block | KCNQ2 block baseline
CCOC(=O)N1CCN(c2c(N3CCN(c4ccc(F)cc4)CC3)c(=O)c2=O)CC1 | i | 0.38
Cc1nc(N2CCN(C)CC2)c2c(C)c(C(=O)Nc3ccc(C)c(F)c3)sc2n1 | i | -2.66
O=C(c1cccnc1Cl)N1CCOCC1 | i | 1.98
COc1ccc(/C=N/NC(=O)c2ccc3c(c2)OCCO3)c(OC)c1 | i | -0.05
COc1ccc(C(CC(=O)Nc2cc(C)ccn2)N2Cc3ccccc3C2=O)cc1 (stereo unspecified) | i | 0.32
CCn1nnnc1SCC(=O)Nc1nc2ccccc2s1 | i | 1.58
O=C(N/N=C/c1sc(=O)n(-c2ccccc2)c1Cl)c1ccncc1 | i | 1.35
COc1ccc(S(=O)(=O)N2CCN(C)CC2)cc1Br | i | -0.8
Nc1nnc(SCC(=O)N2CCCCC2)s1 | i | -0.18
CCOC(=O)N1c2ccccc2C=CC1OCC (stereo unspecified) | i | -0.22
Cc1cccc(OCc2nnc(N)s2)c1 | i | -0.29
Cc1cc(C)nc(NS(=O)(=O)c2ccc(NS(=O)(=O)c3ccsc3)cc2)n1 | i | 0.38
COc1cc(C(=O)NCc2cccc3ccccc23)ccc1OCc1ccccc1 | i | -0.89
COc1cc(C(=O)N2CCN(C/C=C/c3ccccc3)CC2)cc(OC)c1C | i | -0.66
O=C(CN1C(=O)NC2(CCCCC2)C1=O)NCc1ccc2c(c1)OCO2 | i | 0.68
O=C(CSc1n[nH]c(=O)[nH]c1=O)NC1CC1 | i | -1.37
COc1ccc(-c2nc(C#N)c(N3CCCCCC3)o2)cc1 | i | 1.05
C[n+]1cc(C(=O)N2CCCCC2)ccc1/C=C/c1c[nH]c2ccccc12 | i | 30.7
CN(C(=O)COC(=O)CSc1ccc(C(N)=O)cc1[N+](=O)[O-])C1CCCCC1 | i | -2.09
O=C(Nc1nc2c(ccc3ccccc32)s1)c1cc([N+](=O)[O-])ccc1N1CCOCC1 | -9.55* | 0.42*
COc1ccccc1NC(=O)NC1(C)CCS(=O)(=O)C1 (stereo unspecified) | i | -0.23
Cc1cc(C)nc(N2CCC(C(=O)N3CCN(c4cc(Cl)ccc4C)CC3)CC2)n1 | i | -1.39
CCCn1c(NC(=O)C2CCN(C(=O)c3ccc(F)cc3)CC2)nc2ccccc21 | i | 1.26
CC(Sc1ccccc1)C(=O)Nc1cccc(N(C)S(C)(=O)=O)c1 (stereo unspecified) | i | 0.36
CCO[C@@H]1OC(C(=O)N2CCOCC2)=C[C@H](C)[C@H]1CCCO | i | 0.91

As a short view, part of the list above.
SMILES | KCNQ2 block | KCNQ2 block baseline
CCn1nnnc1SCC(=O)Nc1nc2ccccc2s1 | i | 1.58
O=C(N/N=C/c1sc(=O)n(-c2ccccc2)c1Cl)c1ccncc1 | i | 1.35
COc1ccc(S(=O)(=O)N2CCN(C)CC2)cc1Br | i | -0.8
Nc1nnc(SCC(=O)N2CCCCC2)s1 | i | -0.18
CCOC(=O)N1c2ccccc2C=CC1OCC (stereo unspecified) | i | -0.22
Cc1cccc(OCc2nnc(N)s2)c1 | i | -0.29
Cc1cc(C)nc(NS(=O)(=O)c2ccc(NS(=O)(=O)c3ccsc3)cc2)n1 | i | 0.38
COc1cc(C(=O)NCc2cccc3ccccc23)ccc1OCc1ccccc1 | i | -0.89
COc1cc(C(=O)N2CCN(C/C=C/c3ccccc3)CC2)cc(OC)c1C | i | -0.66
O=C(CN1C(=O)NC2(CCCCC2)C1=O)NCc1ccc2c(c1)OCO2 | i | 0.68
O=C(CSc1n[nH]c(=O)[nH]c1=O)NC1CC1 | i | -1.37
COc1ccc(-c2nc(C#N)c(N3CCCCCC3)o2)cc1 | i | 1.05
C[n+]1cc(C(=O)N2CCCCC2)ccc1/C=C/c1c[nH]c2ccccc12 | i | 30.7
CN(C(=O)COC(=O)CSc1ccc(C(N)=O)cc1[N+](=O)[O-])C1CCCCC1 | i | -2.09
O=C(Nc1nc2c(ccc3ccccc32)s1)c1cc([N+](=O)[O-])ccc1N1CCOCC1 | -9.55* | 0.42*
COc1ccccc1NC(=O)NC1(C)CCS(=O)(=O)C1 (stereo unspecified) | i | -0.23

(listing goes on)
SMILES | KCNQ2 block | KCNQ2 block baseline
CCOc1ccc(NC(=O)N(C2CCCCCC2)C2CCN(C(C)=O)CC2)cc1 | i | -0.74
CCOC(=O)c1cc(NC(=O)c2ccccc2)c(=O)oc1-c1ccccc1 | i | 0.9
O=C(CC1(O)C(=O)Nc2ccccc21)c1ccccc1O (stereo unspecified) | i | -1.9
COc1ccc(S(=O)(=O)Nc2ncccc2C)c2ccccc12 | i | -0.34
O=C(Nc1ccccc1)C1=C[C@H](c2ccc(Br)cc2)C[C@H](OCc2ccc(CO)cc2)O1 | i | -0.08
Cc1cc(=O)oc2cc(OC(C)C(=O)Nc3nccs3)ccc12 (stereo unspecified) | i | -0.8
CC(C)Sc1nnc([C@H](Cc2ccccc2)NC(=O)OC(C)(C)C)o1 | i | -0.17
O=C(c1ccccc1)N1CCC(c2nc3c(nnn3Cc3ccccc3Cl)c(=O)[nH]2)CC1 | i | -0.11
C[C@@H](C(=O)Nc1ccc2ccccc2c1)[C@@H]1C[C@@]1(C)[C@@H](NC(=O)c1ccccc1)c1ccccc1 | i | 0.97
CCCCC(=O)Nc1c(-c2cccc(OC)c2)c(=O)c2ccccc2n1C | i | -1.82
Cn1c(O)c(N=NC(=O)CNC(=O)c2ccccc2)c2ccccc21 | i | -2.01
CCN(CC)CCCNCC(=O)Nc1cc(C)on1 | i | -0.25
Cc1ccc(/C=C2\SC(=S)N(CC(=O)Nc3cccnc3)C2=O)cc1 | i | 0.05
CS/C(N)=N/C(=S)Nc1cccc(Cl)c1 | i | 0.3
N#C/C(=C/c1cn[nH]c1-c1ccc(Br)cc1)C(=O)O | i | -0.62
CCOc1ccc(CCNC(=O)COC(=O)c2nc(Cl)ccc2Cl)cc1OCC | i | 0.79
O=C(CCN1CCN(C/C=C/c2ccccc2)CC1)Nc1ccc(Cl)cc1 | i | 0.31
Cc1nnc(SCC(=O)Nc2ccc3c(c2)OCCO3)n1CC1CCCO1 (stereo unspecified) | i | -0.73
CCC(C(=O)Nc1sc(C(N)=O)c(C)c1C(=O)OC)c1ccccc1 (stereo unspecified) | i | 2.5
CCCCCCCN1C(Nc2ccccc2)=NC[C@@H]1Cc1ccccc1 | i | -1.59
CCOC(=O)N1CCc2c(sc3c2c(=O)n(Cc2ccccc2)c(=O)n3Cc2ccccc2F)C1 | -11.6* | 1.63*
COCCCNC(=O)CCn1c(=O)c2ccccc2n(CC(=O)NCCC2=CCCCC2)c1=O | i | 3.45
COc1ccc(C(=O)NC2CCN(Cc3c(F)cccc3Cl)CC2)cc1OC | i | -1.81
O=C(CNC(=O)c1ccccc1)N/N=C/c1cc(Br)ccc1O | i | -1.75
CCC(C)N(C(=O)COC(=O)c1ccccc1SCC(=O)N1CCCC1)C1CCS(=O)(=O)C1 (stereo unspecified) | i | 0.6
SMILES | KCNQ2 block | KCNQ2 block baseline
CC(CN1CCOCC1)c1ccccc1 (stereo unspecified) | i | 0.92
O=C(Cc1ccc(-n2c(=O)[nH]c3ccsc3c2=O)cc1)NCc1cccnc1 | i | 0.22
COc1ccc(CCn2c(-c3ccco3)nc3ccccc3c2=O)cc1OC | i | -2.67
C=CCc1c(C)nc(-c2ccccc2)nc1Nc1ccccc1O | i | 3.37
Cc1ccc(Cn2nnnc2CN2CCC(NC(=O)c3ccc(Br)cc3)CC2)cc1 | i | 1.78
CCCc1cc(=O)[nH]c(SCC(=O)NC2CCCc3ccccc32)n1 (stereo unspecified) | i | -0.36
O=S(=O)(Cc1ccccc1)c1cnc2ccccc2n1 | i | -0.13
Cc1ccc2oc(C(=O)N(CCO)Cc3ccccc3)c(C)c2c1 | i | 0.61
CCOc1ccc(N(C(C)C(=O)NC2CCCCCC2)S(C)(=O)=O)cc1 (stereo unspecified) | i | -1.47
O=C(CCCN1C(=O)c2cccc3cccc(c23)C1=O)N1CCN(c2ccc(F)cc2)CC1 | i | -0.66
COn1c(=O)c(-c2ccc(F)cc2)[n+]([O-])c2ccccc21 | i | -0.27
O=C(COC(=O)c1cnccn1)NCc1ccc2c(c1)OCO2 | i | 0.23
COc1ccc(Cl)cc1NC(=O)CN1C(=O)CCS(=O)(=O)c2ccccc21 | i | -2.11
CSCCC(NC(=O)c1ccccc1Br)C(=O)N1CCC(C)CC1 (stereo unspecified) | -11.5* | 0.04*
CN(c1ccccc1)S(=O)(=O)c1cccc(C(=O)OCC(=O)NCc2ccc3c(c2)OCO3)c1 | i | -1.51
COc1ccc(NC(=O)Cn2nnc(C(=O)NCc3cccs3)c2N)c(OC)c1 | i | -0.2
CCCC(=O)Nc1ccc(C(=O)NCCc2ccc(F)cc2)cc1 | i | 1.5
C/C(=N\NC(=O)c1nnn(-c2nonc2N)c1-c1ccccc1)c1ccccc1O | i | 0.27
CCSc1nnc(NC(=O)c2cc(-c3ccccc3O)n[nH]2)s1 | i | 0.73
Cc1nc(CS(=O)(=O)c2ccccn2)sc1C(=O)NNC(=O)c1ccccc1 | i | 1.2
CN(C)c1ccc(C(CNC(=O)c2ccccc2)c2c[nH]c3ccccc23)cc1 (stereo unspecified) | i | 0.68
Cc1ccc(OCC(=O)N/N=C/c2cc([N+](=O)[O-])ccc2N2CCCCC2)cc1 | i | -0.3
COc1ccc(-c2nnc(SCC(=O)NC(C)c3ccccc3)o2)cc1 (stereo unspecified) | i | 0.51
CC1(C)CC(=O)C(Sc2ccc(Br)cc2)=C(O)C1 | i | 0.1
CC1CCC(C(=O)NC(C(=O)N2CCc3ccccc3C2)C(C)C)CC1 (stereo unspecified) | i | -1.21
SMILES | KCNQ2 block | KCNQ2 block baseline
CCc1nc2ccccc2c(C(=O)OCC(=O)Nc2ccc(S(=O)(=O)N3CCOCC3)cc2)c1C | i | 1.73
COc1cccc(/C=C(/C#N)c2ccc(F)cc2)c1OCc1cccc(C(=O)O)c1 | i | -1.69
COc1ccc(/C=C2/SC(=S)N(c3ccc(S(=O)(=O)Nc4nccs4)cc3)C2=O)cc1 | i | 0.06
CC1(C)Cc2ccccc2C2=C(C(=O)N3CCCCCC3)C(=O)C(=O)N21 | i | 0.47
O=C(NCc1ccccc1)c1nccnc1CO | i | 2.07
COc1ccc(NC(=S)N2CCN(S(=O)(=O)c3ccccc3)CC2)cc1OC | i | 0.01
O=C(CC(C(=O)N1CCc2ccccc21)n1ccnc1)NCc1ccccc1 (stereo unspecified) | i | -1.03
CC(Oc1ccc(C#N)cc1)C(=O)c1ccc(F)c(F)c1 (stereo unspecified) | i | -0.02
Cc1ccc(C(=O)NCCc2ccc(F)cc2)s1 | i | -0.56
O=C1S/C(=C\C=C\c2ccco2)C(=O)N1c1ccccc1 | i | 1.5
CCN(CC)S(=O)(=O)c1cccc(C(=O)Nc2cc(C)on2)c1 | i | 0.63
Cc1ccccc1-n1c(C)nnc1SCC(=O)N1CC(=O)Nc2ccccc21 | i | 0.18
COc1ccc(-c2cc(C(=O)NC3CC3)c3ccccc3n2)cc1 | i | 0.01
CCOc1ccccc1NC(=O)CSc1nnc(-c2ccccn2)n1Cc1ccco1 | i | 0.33
CC1SC(=NC(=O)c2ccncc2)NC1=O (stereo unspecified) | i | 0.01
COc1cc(CNC(=O)c2cnc(C)cn2)cc(OC)c1 | i | 0.01
O=C(/C=C/c1ccc(Cl)cc1Cl)N1CCN(c2ccccc2[N+](=O)[O-])CC1 | i | 0.19
Cc1cccc(NC(=S)NC2CC3CCC(C2)N3Cc2ccco2)c1 (stereo unspecified) | i | 1.71
COc1ccccc1-c1nnc(SCC(=O)O)n1C | i | 0.7
CC(Oc1ccccc1)C(=O)Nc1oc(-c2ccco2)c(-c2ccco2)c1C#N (stereo unspecified) | i | 0.9
NC(=O)C1CCN(C(=O)c2ccc(C(F)(F)F)cc2)CC1 | i | -0.04
c1ccc(C(CN2CCOCC2)c2ccccc2)cc1 | i | 0.01
O=C(CCN1CCN(C/C=C/c2ccccc2)CC1)Nc1ccccc1 | i | 1.36
COC(=O)c1ccc(NC(=O)CN2CCN(S(=O)(=O)c3ccc(Br)cc3)CC2)cc1 | i | -1.93
O=C(OCC(=O)N1CCCC1)c1ccc(OC(F)(F)F)cc1 | i | 1.16

Profiles as entered above. Values in the order: KCNQ2 block | KCNQ2 block baseline
COc1ccc(S(=O)(=O)Nc2ncccc2C)c2ccccc12 is listed with i | -0.34
CCCCC(=O)Nc1c(-c2cccc(OC)c2)c(=O)c2ccccc2n1C is listed with i | -1.82

Next compounds
SMILES | KCNQ2 block | KCNQ2 block baseline
COc1ccc(-c2noc3c2-c2nc(-c4ccc(Cl)cc4)sc2CC3)cc1 | i | 0.53
COc1ccccc1/C=C1\SC(=O)N(CCC(=O)N(C)C2CCS(=O)(=O)C2)C1=O (stereo unspecified) | i | -0.95
CN1CCN(C(=O)N2CCNC2=O)CC1 | i | -1.58
CCCCNC(=O)CO/N=C(\C)c1cc2ccccc2o1 | i | 1.78
CCCC(=O)NC(c1ccc2c(c1)OCO2)c1cc(Cl)c2cccnc2c1O (stereo unspecified) | i | 1.2
Cc1ccc(CNC(=S)Nc2ccc(NS(=O)(=O)c3ccc(C)cc3)cc2)cc1 | i | -1.17
CCC(Sc1nc(=O)cc(N)n1-c1cccc(C)c1)C(=O)Nc1cc(C)on1 (stereo unspecified) | i | 0.06
CCOC(=O)c1c(S(=O)(=O)Nc2cccc(Cl)c2)c(C)n(C)c1C | i | 1.25
CCn1c(O)c(C=NCc2ccccc2)sc1=S | i | 1.43
CC(C)c1ccccc1NC(=O)c1cccnc1 | i | -1
c1ccc(-c2ccc(CN3C[C@@H]4C(c5ccccc5)C5(c6cccnc6)CC4(C5)[C@H]3c3ccccc3)cc2)cc1 (stereo partly specified) | i | -1.15
O=S(=O)(c1ccc(F)cc1)c1nc(-c2ccco2)oc1Nc1ccccc1 | i | 1.27
COc1ccc(NC2CCCN(C(=O)c3ccc(C(C)=O)s3)C2)cc1 (stereo unspecified) | i | 1.82
CC(C)(O)C(O)COc1c2ccoc2cc2oc(=O)ccc12 (stereo unspecified) | i | 1.88
COc1ccc(OC)c(/C=N\NC(=O)c2ccc(-c3ccccc3)cc2)c1 | i | 0.94

Screens as filed in PubChem BioAssay.

Only part of the results is shown, so the mix of outcomes need not match the whole.
